Screening results as filed in PubChem BioAssay.
HTT promoter inh – inhibits huntingtin promoter activity | HEK293 HTT promoter firefly luciferase reporter (activity 0% = vehicle and -100% = no light), 24 h | Potency, µM (titrated, usually from 57.5 µM), inactives show at the highest dose activity change, negative = inhibition, most hits filed as inhibitors | 48,000 tested, 0.93% active; active = well fitted inhibition curve with a large enough effect; inconclusive = small, poorly fitted or top-dose-only effect; inactive = no such curve, though single readings can be large or run the other way; also: nearly all actives have a fitted effect of over 50% in size
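Firefly luciferase signal from promoter-reporter HEK293 cells was scaled between vehicle (0%) and zero RLU (-100%). Compounds were tested at final concentrations of up to 57.5 uM over 24 h at 37 degrees C. PTC124 at 50 uM final served as control inhibitor.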
PMP22 txn prim – modulators of PMP22 gene transcription in S16 Schwann cells; AID 1508649; S16 Pmp22-F2sN Schwann cells (luciferase reporters placed in the Pmp22 gene), FLuc/NLuc coincidence luminescence, 24 h; Potency, µM (titrated, usually from 57.5 µM), inactives show at the highest dose activity change, negative = inhibition, hits mostly inhibitors; 43,000 tested, 2% active; active = clear falling dose curves in both reporters; inconclusive = both reporters move, but less clearly or upward; inactive = either reporter flat; the % is the NLuc reporter signal; also: % is scaled to controls: 0 for no effect and ±100 for the full control effect; some results filed as inactive show a strong effect at the top dose
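Schwann cells carrying the coincidence reporter were exposed to library compounds for 24 h at 37C, then lysed and read for FLuc and, after quenching, NLuc luminescence on a CCD imager.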
Numbers without * were called inactive; u = inconclusive; x = not tested or not shown; [ ] = another dose, or the depositor's remark. Potency is read from the fitted curve at half-maximal effect. No enrichment for hits; 2.7% or so of the library scored in one or more.

Structure,PMP22 txn prim,HTT promoter inh
COc1ccc(-c2cnc(C)o2)cc1S(=O)(=O)Nc1ccc(C)c(N(C)C)c1,-1%,-19%
Cc1ccccc1C(=O)Nc1ccc2nc(N3CCCCC3)cc(C)c2c1,-108%,14%
Cn1c(=O)c(=O)n(C)c2cc(S(=O)(=O)N3CCN(c4ccccc4)CC3)ccc21,u,-11%
Cc1c(Cl)cccc1-c1ccc(CNCCSc2nnnn2-c2ccccc2)o1,u,14%
COc1ccc(Cn2c(CCC(=O)Nc3ccc(C)c(C)c3)nc3cccnc32)cc1,9%,-24%
CCOC(=O)C(Cc1c[nH]c2ccccc12)NC(=O)COc1ccc(Cl)cc1 (stereo unspecified),-23%,-17%
CCCCN(Cc1ccccc1)C(=O)CN(C)S(=O)(=O)c1ccc2c(c1)c(=O)n(C)c(=O)n2C,u,-15%
CCc1ccccc1N1CC(c2nc3ccccc3n2CCC2CCCCC2)CC1=O (stereo unspecified),u,u

Four compounds from above, sorted by the number in HTT promoter inh, largest number first.
SMILES,HTT promoter inh
Cc1ccccc1C(=O)Nc1ccc2nc(N3CCCCC3)cc(C)c2c1,14%
Cn1c(=O)c(=O)n(C)c2cc(S(=O)(=O)N3CCN(c4ccccc4)CC3)ccc21,-11%
CCCCN(Cc1ccccc1)C(=O)CN(C)S(=O)(=O)c1ccc2c(c1)c(=O)n(C)c(=O)n2C,-15%
COc1ccc(-c2cnc(C)o2)cc1S(=O)(=O)Nc1ccc(C)c(N(C)C)c1,-19%

Continuation:
Structure,PMP22 txn prim,HTT promoter inh
Cc1ccc(-c2ccc(=O)n(Cc3cc(C)ccc3C)n2)cc1,u,u
CCN(Cc1nc(-c2ccc(OC)c(OC)c2)no1)S(=O)(=O)c1ccc(OC)cc1,u,0%
CCOC(=O)c1c(Nc2ccc(F)cc2)nnc(-c2ccccc2)c1-c1ccccc1,u,u
COc1ccccc1NC(=O)c1nn(C)c2c1CS(=O)(=O)c1ccccc1-2,-4%,-4%
CCCCC(=O)Nc1nnc(S(=O)(=O)N(CC)c2cc(C)cc(C)c2)s1,0%,-10%
CCN(CC)CCNC(=O)C(=O)Nc1c2c(nn1-c1ccc(F)cc1)CSC2,2%,-16%
O=C(Nc1cccc(F)c1)c1cnc2sc(N3CCCC3)nn2c1=O,-4%,u
CCS(=O)(=O)N1CCc2cc(C(=O)Nc3ccc(OC)c(Cl)c3)ccc21,-6%,u
COc1ccc(OC(=O)c2nc(SCc3ccc(C)cc3)ncc2Cl)cc1,-21%,0%
O=C(CSc1nc2c(c(=O)[nH]1)CCC2)Nc1cccc(O)c1,0%,1%
Cc1ccc(Cl)cc1Nc1nn2c(=O)c3ccc(C(=O)NC4CCCCC4)cc3nc2s1,-7%,-4%
COCC(C)NS(=O)(=O)c1ccc(N2CCCCS2(=O)=O)cc1 (stereo unspecified),-17%,-36%
COC(=O)c1ccc(NC(=O)CN(C)S(=O)(=O)c2ccc(Br)s2)cc1,-8%,-3%
CC(C)CC(NS(=O)(=O)c1ccc2c(c1)oc(=O)n2C)C(=O)NCc1ccccc1Cl (stereo unspecified),-5%,-9%
COc1cc(NS(=O)(=O)c2cc(Br)cc3c2N(C(=O)C2CC2)CC3)cc(OC)c1,3.6µM*,16µM*
COc1ccc(-c2noc(CCC(=O)N(C)c3ccccc3C)n2)cc1,u,u
CCOc1ccc(-c2cc(C(=O)NCc3ccccc3)c3c(-c4ccc(CC)cc4)[nH]nc3n2)cc1,-57%,-9%
O=C(Cn1nc(-c2ccccc2)c2cnc3ccc(F)cc3c21)NC1CCCC1,12%,0%
CCc1cccc(C)c1NC(=O)C1CCCN1S(=O)(=O)c1cccc2nsnc12 (stereo unspecified),27%,-16%
CCc1ccccc1NC(=O)Cc1ccc(NC(=O)N2CCCCc3ccccc32)cc1,u,u
CC(C)CCNC(=O)Cn1nc(N2CCN(c3ccccc3)CC2)ccc1=O,5%,11%
Oc1c(C(c2ccccc2F)N2CCN(c3ccccc3F)CC2)sc2nc(-c3ccco3)nn12 (stereo unspecified),7%,12%
COCCCn1c(SCC(=O)Nc2ccc(F)cc2)nc2c(sc3ccccc32)c1=O,u,-13%
CCCCc1oc2ccccc2c1C(=O)c1cc(I)c(OCCN(CC)CC)c(I)c1,x,u
Cc1cccc(CNC(=O)c2cnc3sc(N4CCCCCC4)nn3c2=O)c1,u,-5%
CC(C)(C)NC(=O)CCSc1nc(-c2ccc3c(c2)OCO3)cc(C(F)(F)F)n1,u,1%
O=C(Nc1cccc(C(F)(F)F)c1)c1cc2ccc3cccnc3c2[nH]1,-9%,-3%
CCn1c(=O)cc(OCC(=O)N2CCN(c3ccc(C(C)=O)cc3)CC2)c2ccccc21,-9%,-2%
COc1ccc2cc(CNc3ccc(OC)c(OC)c3)c(=O)n(CC(=O)Nc3ccccc3F)c2c1,-12%,-24%
CC(C)CCN(C(=O)Nc1ccc(Cl)c(Cl)c1)C(C)c1cccs1 (stereo unspecified),u,u
CC(C)(CC(=O)NCc1ccc(Cl)cc1Cl)CC1=NS(=O)(=O)c2ccccc2N1,u,20µM*
O=C(Cn1c(SCC(=O)Nc2ccc(F)cc2)nc2ccccc21)NCc1ccc(F)cc1,u,-30%
Cc1cccc(NC(=O)C2CCN(S(=O)(=O)c3cccc4nsnc34)CC2)c1C,-4%,0%
Cc1cccc(C(=O)Nc2ccc3oc(-c4ccncc4)nc3c2)c1,-12%,u
Cc1ccc2[nH]c3c(=O)n(CC(=O)N4CCN(c5ccccc5F)CC4)ncc3c2c1,9%,4%
CCOc1ccccc1NC(=O)c1c(NC(=O)COc2ccccc2)sc2c1CCCCC2,13µM*,u
COc1cc([C@@H]2c3cc4c(cc3[C@H](O)[C@H]3COC(=O)[C@@H]23)OCO4)cc(OC)c1OC,x,-33%
CCC(=O)N1CCc2cc(S(=O)(=O)NC(Cc3ccccc3)C(=O)NCc3ccccc3OC)ccc21 (stereo unspecified),-8%,-16%
COC(=O)c1sc2c(c1C)c(=O)n(-c1ccccc1)c(=O)n2CC(=O)Nc1cccc(C)c1,u,-6%
Cc1ccc(C)c(NC(=O)C2CCCN(c3nc4ccccc4s3)C2)c1 (stereo unspecified),u,14%
CN(C)c1ccc(CNC(=O)c2cccc(NC(=O)N3CCSc4ncccc43)c2)cc1,-4%,u
CCOc1ccc(NC(=O)c2ccc(-c3cccc(Cl)c3C)o2)cc1,-28%,7%
CCNc1nc(Oc2ccc(OCC(=O)OC)nn2)nc(N2CCOCC2)n1,-3%,0%
CCOC(=O)CC(=O)CSc1nc2ccccc2c(=O)n1CCc1ccccc1,-16%,-42%
CCCC(CCC)C(=O)Nc1cc(-c2cn3cccnc3n2)ccc1OC,11%,-7%
Cc1cc(C)cc(NS(=O)(=O)c2ccc3[nH]cc(C(=O)NCCc4ccccc4)c(=O)c3c2)c1,15%,-14%
Cc1ccc(Cn2c(CO)cnc2SCc2ccc(F)cc2)cc1,u,u
O=C(Nc1ccc(Br)cc1F)c1ccc2nc(CCc3ccccc3)oc2c1,u,28%
Cc1ccc(NC(=O)c2cnc(SCC(=O)Nc3cc(C)on3)n(C)c2=O)cc1,-3%,-12%
Cc1cccc(NC(=O)Cn2c(=O)oc3cc(S(=O)(=O)NC4CCCC4)ccc32)c1,-38%,u
CCOc1ccccc1C(=O)NCc1ccc2c(c1)CCN2C(=O)c1ccc(F)cc1,-89%,-21%
Cc1cc(OCCCc2c(C(=O)O)n(Cc3cccnc3)c3c(-c4c(COc5ccc(N6CCN([S+](C)(=O)[O-])CC6)cc5)nn(C)c4C)cccc23)cc(C)c1Cl,x,u
Cc1ccc(CSc2oc(-c3ccco3)nc2S(=O)(=O)c2ccc(C)cc2)cc1,u,u
COc1ccc(C(=O)Nc2ccc3oc(-c4ccc(OC)cc4)nc3c2)cc1,8%,34%[activator]
Cc1c(NC(=O)c2ccc(-c3cccc([N+](=O)[O-])c3)o2)cccc1-c1nc2cc(Cl)ccc2o1,u,11%
O=C(Nc1nc2nc(-c3ccccc3)cc(=O)n2[nH]1)c1ccc(F)cc1,-1%,-5%

Next records.
Structure,PMP22 txn prim,HTT promoter inh
CCOc1ccccc1NC(=O)Nc1ccc2nc(N3CCN(C)CC3)cc(C)c2c1,u,47%[activator]
CCCN(CCc1cccs1)[C@H]1CCc2c(O)cccc2C1,x,4%
CCn1cc(S(=O)(=O)c2cc(C)cc(C)c2)c(=O)c2cc(F)c(N3CCC(C)CC3)cc21,u,-20%
Cc1ccc(NC(=O)Cn2c(=O)n(Cc3nc(-c4ccccc4)no3)c(=O)c3ccccc32)c(C)c1,8%,-12%
CCOc1ccc(N(CC(=O)NCc2ccccc2Cl)S(=O)(=O)c2c(C)[nH]c(=O)[nH]c2=O)cc1,0%,24%[11.5 µM]
CC1CN(C(=O)CCC(=O)NCc2ccccc2)c2cc(Cl)ccc2O1 (stereo unspecified),u,-19%
CCN(Cc1ccccc1)C(=O)Cn1c(=O)n(-c2ccc(OC)cc2OC)c(=O)c2c(C)c(C)sc21,u,-3%
COc1ccc(-c2cn3c(n2)sc2cc(C(=O)NC4CCCCC4)ccc23)cc1,-22%,-24%
COc1cccc(NC(=O)c2sc3nc(C)c(C(=O)Nc4ccc(C)cc4C)c(-c4ccc(C)o4)c3c2N)c1,-4%,9%
COc1cccc(NC(=O)c2ccc3[nH]c(C)cc(=O)c3c2)c1,12%,11%
Cc1ccc(CNC(=O)CN2C(=O)COc3ccc(S(=O)(=O)N4CCC(C)CC4)cc32)cc1,1%,u
Cc1cc(C)cc(NC(=O)c2ccc3oc(=O)c(S(=O)(=O)c4ccc(F)cc4)cc3c2)c1,11µM*,-12%
CC(CNC(=O)c1cnn(-c2ccc(F)cc2)c1-n1cccc1)c1ccccc1 (stereo unspecified),u,u
O=c1[nH]c(SCc2c(F)cccc2Cl)nc2c1CCCC2,-18%,-17%
CCOc1ccc(CCNC(=O)CSc2nnnn2-c2ccccc2Cl)cc1OCC,-8%,-19%
CCC(C(=O)NC1CCCCC1)n1c(SCc2ccccc2F)nc2ccncc21 (stereo unspecified),u,-25%
Cc1cc(C)c(NC(=O)c2cc(S(=O)(=O)NCCC3=CCCCC3)ccc2F)c(C)c1,u,u
CCOc1ccc(S(=O)(=O)Nc2ccc3oc4c(c3c2)CC(C)CC4)cc1 (stereo unspecified),u,-18%
CCN(CC)CCNc1ncnc2c1cnn2-c1cc(Cl)ccc1C,-20%,-9%
CCOC(=O)c1ccc(N2C(=O)c3[nH]nc(-c4ccccc4)c3C2c2ccc(C(C)C)cc2)cc1 (stereo unspecified),u,-20%
CCCOc1ccc(CNC(=O)c2ccc(C)c(-n3c(C)nc4cccnc43)c2)cc1,3%,-19%
COc1ccc(CCNC(=O)c2ccc(Cn3c(=O)c4ccccc4n(Cc4ccc(F)cc4Cl)c3=O)cc2)cc1OC,-2%,23%
CCOc1ccc(CCNC(=O)c2sc3nc4n(c(=O)c3c2C)CCCC4)cc1,-20%,-7%
CC(C)c1ccc2c(c1)c(SC(C)(C)C)c(CC(C)(C)C(=O)O)n2Cc1ccc(Cl)cc1,x,-33%
CC(Sc1nc(=O)cc(N)n1CCc1ccccc1)C(=O)Nc1ccc(Cl)cc1 (stereo unspecified),8%,-19%
COc1cc(OC)c(OC)cc1/C=C/c1nc2cc3ccccc3cc2c(=O)n1-c1ccc(F)cc1F,9.5µM*,u
CC(=O)N1CCCc2cc(S(=O)(=O)N3CCCCC3)ccc21,-11%,-6%
O=C(c1ccc(Cl)cc1)c1cn(Cc2ccccc2)c2cc3c(cc2c1=O)OCCO3,-47%,u
COc1ccc(-c2ccc3c(N)c(C(=O)Nc4cc(F)ccc4C)sc3n2)cc1,2%,-21%
COc1ccc2c(c1OC)C(=O)O[C@@H]2[C@H]1c2c(cc3c(c2OC)OCO3)CCN1C,x,-14%
CCN(CC)C(=O)c1c(-c2ccccc2)c(-c2ccccc2)nn(C)c1=O,3%,-2%
CC(C)(C)NCC(O)COc1ccc(NC(=O)NC2CCCCC2)cc1 (stereo unspecified),x,10%

Profiles as entered above:
CC(C)(C)NCC(O)COc1ccc(NC(=O)NC2CCCCC2)cc1 (stereo unspecified) in the list: PMP22 txn prim: x; HTT promoter inh: 10%
O=C(c1ccc(Cl)cc1)c1cn(Cc2ccccc2)c2cc3c(cc2c1=O)OCCO3 in the list: PMP22 txn prim: -47%; HTT promoter inh: u

(continued)
Structure,PMP22 txn prim,HTT promoter inh
CCc1ccccc1NC(=O)C1CCCN(c2cnccn2)C1 (stereo unspecified),5%,-11%
COc1cccc(OCc2cc(=O)n3cc(C)sc3n2)c1,6%,35%[activator]
CC1CCN(S(=O)(=O)c2ccc3c(c2)N(CC(=O)NCC(C)c2ccccc2)C(=O)CO3)CC1 (stereo unspecified),-6%,-16%
Cc1ccc(-n2nnc(-c3nsc(NC(=O)c4cccc(Cl)c4)n3)c2C)cc1C,-13%,u
